MenB inh: Mtb MenB enzyme inhibition; hit rate 0.43% among 100,000; inhibition, %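 (about 12 µg/mL by stock and volumes)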; MenB enzyme assay, absorbance read-out; some hits fall short of the stated cut;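 active = mean of two replicates above 30%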;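 also: 0% = no compound and 100% = wells with inactive enzyme; the first replicate is given; strong numbers were not always called active; inactives centre near -10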
Polio RdRp inh: inhibitors of poliovirus RNA polymerase binding and polymerization. % elongation, % (compound at 16.7 µg/mL). hit rate 0.66% among 150,000. P03300. poliovirus polymerase elongation, fluorescence polarization; hits give low values; in the data active = % elongation below about 90%; also: some results filed as inactive read as strong as hits
Target sequence (P03300 1749-2209 limits assumed): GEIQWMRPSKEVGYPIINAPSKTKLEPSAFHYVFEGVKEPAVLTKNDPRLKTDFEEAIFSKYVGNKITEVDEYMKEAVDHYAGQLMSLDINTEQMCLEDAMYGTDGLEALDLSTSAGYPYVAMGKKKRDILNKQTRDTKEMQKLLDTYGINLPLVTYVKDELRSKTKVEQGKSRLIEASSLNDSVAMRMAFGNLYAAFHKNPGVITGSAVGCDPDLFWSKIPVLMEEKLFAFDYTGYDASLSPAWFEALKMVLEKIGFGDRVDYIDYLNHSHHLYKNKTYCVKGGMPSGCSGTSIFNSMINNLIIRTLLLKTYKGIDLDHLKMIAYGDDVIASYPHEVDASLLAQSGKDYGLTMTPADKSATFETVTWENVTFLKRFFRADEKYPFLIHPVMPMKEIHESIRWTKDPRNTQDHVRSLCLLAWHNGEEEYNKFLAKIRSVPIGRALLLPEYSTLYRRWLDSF
Mtb MbtI inh: blocks the Mycobacterium tuberculosis siderophore enzyme MbtI | P9WFX0 | purified MbtI enzyme, fluorescence intensity read-out | inhibition, %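 (about 17 µg/mL by stock and volumes)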 | hit rate 0.89% among 100,000 | AID 493033;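 active = above 50% in both replicates, above 80% if mildly self-fluorescent; inactive = the rest, strongly fluorescent compounds included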;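 also: 0% = mean of negative and 100% = mean of positive controls; one replicate is shown; some compounds called inactive have numbers as strong as hits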
Target sequence (P9WFX0 whole entry, looked up): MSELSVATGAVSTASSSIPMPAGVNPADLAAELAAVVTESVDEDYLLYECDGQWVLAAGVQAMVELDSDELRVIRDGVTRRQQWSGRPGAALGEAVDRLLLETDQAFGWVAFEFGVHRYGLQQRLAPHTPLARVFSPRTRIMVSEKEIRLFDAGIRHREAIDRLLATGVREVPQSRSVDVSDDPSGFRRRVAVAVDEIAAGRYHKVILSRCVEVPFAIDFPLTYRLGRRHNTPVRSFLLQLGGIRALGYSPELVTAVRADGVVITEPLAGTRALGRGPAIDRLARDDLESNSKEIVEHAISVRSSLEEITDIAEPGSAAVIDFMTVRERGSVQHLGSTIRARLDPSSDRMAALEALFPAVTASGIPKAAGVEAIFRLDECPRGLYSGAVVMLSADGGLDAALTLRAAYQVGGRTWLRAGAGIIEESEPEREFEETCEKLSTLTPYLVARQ
Polio RdRp inh intensity: further read-out of Polio RdRp inh, marked with its call; % elongation; measured here: total intensity read-out; formula for this scale not given here;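 total fluorescence in place of polarization; lower means less elongation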
* marks the source's active call; other numbers are inactive results. Random draw from the library, and some 1.8% of all compounds hit somewhere here.

Start of the data: the first 3 records as a preview:
What do the screens show for `O=C1C(c2ccccc2)NC(=S)N1C1CCCCC1` (stereo not drawn)?
MenB inh: -17; Polio RdRp inh: 101; Mtb MbtI inh: 4; Polio RdRp inh intensity: 102

What do the screens show for `CN(C)S(=O)(=O)c1ccc(N2CCCC2)c(C(=O)NCc2ccccc2)c1`?
MenB inh: -16; Polio RdRp inh: 104; Mtb MbtI inh: 8; Polio RdRp inh intensity: 102

How did C=CCn1c(SCC(=O)OCC)nnc1C(C)C do in these assays?
MenB inh: -3; Polio RdRp inh: 99; Mtb MbtI inh: -8; Polio RdRp inh intensity: 101

The whole of this part (from the top)
What do the screens show for `O=C1C(c2ccccc2)NC(=S)N1C1CCCCC1` (stereo not drawn)?
MenB inh: -17; Polio RdRp inh: 101; Mtb MbtI inh: 4; Polio RdRp inh intensity: 102

What do the screens show for `CN(C)S(=O)(=O)c1ccc(N2CCCC2)c(C(=O)NCc2ccccc2)c1`?
MenB inh: -16; Polio RdRp inh: 104; Mtb MbtI inh: 8; Polio RdRp inh intensity: 102

How did C=CCn1c(SCC(=O)OCC)nnc1C(C)C do in these assays?
MenB inh: -3; Polio RdRp inh: 99; Mtb MbtI inh: -8; Polio RdRp inh intensity: 101

Results for O=C(NCCS(=O)(=O)Cc1ccc(F)cc1)c1c(F)cccc1Cl ?
MenB inh: -3; Polio RdRp inh: 104; Mtb MbtI inh: -5; Polio RdRp inh intensity: 112

How did Nc1ccc(-c2nc3ccccc3n2CCCOc2ccccc2)cc1 do in these assays?
MenB inh: -10; Polio RdRp inh: 102; Mtb MbtI inh: inactive; Polio RdRp inh intensity: 104

Results for COCCOC(=O)C1=C(C)NC(=S)NC1c1ccc(C)c(OC)c1 (stereo not drawn) ?
MenB inh: 14; Polio RdRp inh: 99; Mtb MbtI inh: 11; Polio RdRp inh intensity: 102

Results for Cc1cc(C(F)(F)F)n2nc(-c3ccccc3)cc2n1 ?
MenB inh: -8; Polio RdRp inh: 109; Mtb MbtI inh: 1; Polio RdRp inh intensity: 120

How did COc1ccc(N2C(=O)CC(N(C(C)=O)c3ccc(OC)cc3)C2=O)cc1 (stereo not drawn) do in these assays?
MenB inh: -7; Polio RdRp inh: 101; Mtb MbtI inh: -9; Polio RdRp inh intensity: 105

What do the screens show for `O=C(NCc1ccccn1)c1ccc2c(c1)N(Cc1ccccc1)C(=O)c1ccccc1S2=O` (stereo not drawn)?
MenB inh: -14; Polio RdRp inh: 101; Mtb MbtI inh: 0; Polio RdRp inh intensity: 101

Results for CC12CC3(C)CC(C)(C1)CC(C(=O)NC(=S)NC(C)(C)C)(C2)C3 ?
MenB inh: 10; Polio RdRp inh: 104; Mtb MbtI inh: -2; Polio RdRp inh intensity: 105

How did O=c1[nH]c(=S)[nH]c(O)c1C=Nc1ccc(Br)cc1 do in these assays?
MenB inh: -1; Polio RdRp inh: 100; Mtb MbtI inh: -16; Polio RdRp inh intensity: 104

How did C[C@H](NS(=O)(=O)/C=C/c1ccccc1)C(=O)OC1CCOC1=O (stereo partly drawn) do in these assays?
MenB inh: -7; Polio RdRp inh: 107; Mtb MbtI inh: -7; Polio RdRp inh intensity: 107

What do the screens show for `CC(=O)Nc1scc[n+]1Cc1ccccc1`?
Polio RdRp inh: 101; Mtb MbtI inh: 5; Polio RdRp inh intensity: 101

What do the screens show for `Cc1cccc(OCc2nnc(SCC(=O)C34CC5CC(CC(C5)C3)C4)o2)c1`?
MenB inh: -31; Polio RdRp inh: 102; Mtb MbtI inh: -8; Polio RdRp inh intensity: 107

Results for COCC(C)Nc1ncnc2sc3c(c12)CCC3 (stereo not drawn) ?
MenB inh: -5; Polio RdRp inh: 104; Mtb MbtI inh: -9; Polio RdRp inh intensity: 110

How did O=C(O)c1ccccc1NCc1cccs1 do in these assays?
MenB inh: -50; Polio RdRp inh: 104; Mtb MbtI inh: 90; Polio RdRp inh intensity: 102

Results for CCN1CCc2c(sc3[nH]c(=S)n(-c4cccc(OC)c4)c(=O)c23)C1 ?
MenB inh: 10; Polio RdRp inh: 104; Mtb MbtI inh: 32; Polio RdRp inh intensity: 112

How did N#Cc1c(N)nc2sc3c(O)cc(=O)[nH]c3c2c1-c1ccc(Cl)cc1 do in these assays?
MenB inh: -106; Polio RdRp inh: 99; Mtb MbtI inh: 14; Polio RdRp inh intensity: 103

Results for O=S(=O)(N1CCCCC1)N1CCN(c2ccc(F)cc2)CC1 ?
MenB inh: -13; Polio RdRp inh: 102; Mtb MbtI inh: -2; Polio RdRp inh intensity: 103

Results for Cc1occc1C(=O)CC#N ?
MenB inh: -80; Polio RdRp inh: 102; Mtb MbtI inh: 14; Polio RdRp inh intensity: 102

Results for CC1(C)CC2CC(C)(CN2CC(=O)Nc2ccc3c(c2)OCCO3)C1 (stereo not drawn) ?
MenB inh: 12; Polio RdRp inh: 102; Mtb MbtI inh: -6; Polio RdRp inh intensity: 101

Results for CC1=CC(C)(C)N(CC(=O)c2ccccc2)c2ccc(C)cc21 ?
MenB inh: -23; Polio RdRp inh: 100; Mtb MbtI inh: -1; Polio RdRp inh intensity: 103

How did C=CCn1c(C)nnc1SCC(=O)N1CCN(S(=O)(=O)c2ccc3ccccc3c2)CC1 do in these assays?
MenB inh: -20; Polio RdRp inh: 100; Mtb MbtI inh: 12; Polio RdRp inh intensity: 103

How did CCOC(=O)[C@H](CCc1ccccc1)N[C@H]1CCc2ccccc2N(CC(=O)O)C1=O do in these assays?
MenB inh: -6; Polio RdRp inh: 102; Mtb MbtI inh: -12; Polio RdRp inh intensity: 105

Reprinted at random: 2 entries already listed.
Results for Cc1cc(C(F)(F)F)n2nc(-c3ccccc3)cc2n1 ?
MenB inh: -8; Polio RdRp inh: 109; Mtb MbtI inh: 1; Polio RdRp inh intensity: 120

How did CCOC(=O)[C@H](CCc1ccccc1)N[C@H]1CCc2ccccc2N(CC(=O)O)C1=O do in these assays?
MenB inh: -6; Polio RdRp inh: 102; Mtb MbtI inh: -12; Polio RdRp inh intensity: 105

Other structures
How did O=C(CCN1C(=O)/C(=C\c2ccco2)SC1=S)N1CCCC1 do in these assays?
MenB inh: -43; Polio RdRp inh: 104; Mtb MbtI inh: 10; Polio RdRp inh intensity: 106

What do the screens show for `Brc1ccc(-c2noc(-c3ccc(Br)cc3)n2)cc1`?
MenB inh: -22; Polio RdRp inh: 104; Polio RdRp inh intensity: 105

How did O=S(=O)(Nc1ccc(Cl)cc1)c1ccc2oc(=S)[nH]c2c1 do in these assays?
MenB inh: -48; Polio RdRp inh: 91; Mtb MbtI inh: 90*; Polio RdRp inh intensity: 86

How did COc1ccc(NC(=O)CCc2c(C)nc3cc(-c4ccc(Cl)cc4)nn3c2C)c(OC)c1 do in these assays?
MenB inh: -5; Polio RdRp inh: 101; Mtb MbtI inh: 12; Polio RdRp inh intensity: 101

Results for CCc1ccc(NC2OC(=O)c3ccccc32)cc1 (stereo not drawn) ?
MenB inh: -12; Polio RdRp inh: 103; Polio RdRp inh intensity: 108

What do the screens show for `COC(=O)c1ccccc1S(=O)(=O)NC(Cc1ccccc1)C(=O)OC` (stereo not drawn)?
MenB inh: -20; Polio RdRp inh: 105; Mtb MbtI inh: -7; Polio RdRp inh intensity: 96

Results for CN1C(=O)C2C3c4ccccc4C(c4ccccc43)C2C1=O (stereo not drawn) ?
MenB inh: 1; Polio RdRp inh: 101; Mtb MbtI inh: -18; Polio RdRp inh intensity: 102

What do the screens show for `CC1(C)CC(=O)C=C(NNS(=O)(=O)c2ccccc2)C1`?
MenB inh: -21; Polio RdRp inh: 103; Mtb MbtI inh: 30; Polio RdRp inh intensity: 101

Results for CCOC(=O)c1cc(COc2c(Cl)cccc2Cl)on1 ?
MenB inh: -11; Polio RdRp inh: 105; Mtb MbtI inh: -4; Polio RdRp inh intensity: 107

What do the screens show for `CCOC(=O)Cc1c(C)nc2c(-c3ccc(Cl)cc3)c(C)[nH]n2c1=O`?
MenB inh: -16; Polio RdRp inh: 105; Polio RdRp inh intensity: 96

How did Cc1ccc(OC(=O)c2cccnc2)cc1 do in these assays?
MenB inh: 52*; Polio RdRp inh: 102; Mtb MbtI inh: 2; Polio RdRp inh intensity: 102

What do the screens show for `O=C(OC/C=C/c1ccccc1)c1cccc(-n2cnnn2)c1`?
MenB inh: -20; Polio RdRp inh: 104; Mtb MbtI inh: -9; Polio RdRp inh intensity: 101

What do the screens show for `O=C(NCc1ccccc1)C1CC(c2ccc(F)cc2)=NO1` (stereo not drawn)?
MenB inh: -17; Polio RdRp inh: 102; Mtb MbtI inh: 1; Polio RdRp inh intensity: 104

What do the screens show for `NC(=O)C1CCCN1c1c(F)c(F)c(C(=O)c2ccccc2)c(F)c1F` (stereo not drawn)?
MenB inh: 3; Polio RdRp inh: 104; Mtb MbtI inh: 27; Polio RdRp inh intensity: 101

Results for CCOc1ccc(NC(=O)C2CCCO2)cc1 (stereo not drawn) ?
MenB inh: -2; Polio RdRp inh: 100; Mtb MbtI inh: 7; Polio RdRp inh intensity: 103

Results for CC(CNC(=O)C1CCCN(C(=O)c2cc3sccc3n2C)C1)c1ccccc1 (stereo not drawn) ?
MenB inh: 0; Polio RdRp inh: 101; Mtb MbtI inh: 8; Polio RdRp inh intensity: 104

How did O=C(COC(=O)c1cnccn1)NCc1ccccc1 do in these assays?
MenB inh: -3; Polio RdRp inh: 108; Mtb MbtI inh: 2; Polio RdRp inh intensity: 112

Results for CCCNC(=O)C1CCN(C(=O)c2ccc(-n3ccc4ccccc43)s2)CC1 ?
MenB inh: -25; Polio RdRp inh: 102; Mtb MbtI inh: -46; Polio RdRp inh intensity: 101

How did CC(C)CC1NC(=S)N(Cc2ccccc2)C1=O (stereo not drawn) do in these assays?
MenB inh: -33; Polio RdRp inh: 98; Mtb MbtI inh: -6; Polio RdRp inh intensity: 101

How did CC1(C)CC(=O)CC(=Nc2ccc(C(=O)O)cc2)C1 do in these assays?
MenB inh: -44; Polio RdRp inh: 102; Mtb MbtI inh: 19; Polio RdRp inh intensity: 104

Results for O=C(Cc1cc(=O)[nH]c(=O)[nH]1)NC1CCCC1 ?
MenB inh: -19; Polio RdRp inh: 99; Mtb MbtI inh: -1; Polio RdRp inh intensity: 106

How did O=C(COc1ccc(C(F)(F)F)cc1)c1ccc2c(c1)OCCO2 do in these assays?
MenB inh: -13; Polio RdRp inh: 103; Mtb MbtI inh: -2; Polio RdRp inh intensity: 108

What do the screens show for `Cc1ccc2oc(=O)c3cnn(CC(=O)N4CCCCCC4)c3c2c1`?
MenB inh: -24; Polio RdRp inh: 102; Mtb MbtI inh: -6; Polio RdRp inh intensity: 102

What do the screens show for `COC(=O)C1Cc2ccccc2CN1CN1C(=O)c2cc(Cl)c(Cl)cc2C1=O` (stereo not drawn)?
MenB inh: 3; Polio RdRp inh: 103; Mtb MbtI inh: -1; Polio RdRp inh intensity: 106

What do the screens show for `CC1(C)CC2CC(C)(CN2S(=O)(=O)c2ccc(Cl)s2)C1` (stereo not drawn)?
MenB inh: -21; Polio RdRp inh: 101; Mtb MbtI inh: -3; Polio RdRp inh intensity: 105

What do the screens show for `O=C(NCCc1ccc2c(c1)OCCO2)c1ccncc1`?
MenB inh: 1; Polio RdRp inh: 103; Mtb MbtI inh: -2; Polio RdRp inh intensity: 98

What do the screens show for `Cc1cc(C)n(CC(=O)N2CCCC2)c(=O)c1C#N`?
MenB inh: -34; Polio RdRp inh: 105; Mtb MbtI inh: 57; Polio RdRp inh intensity: 101

How did CSCCNC(=O)c1cccc(Cl)c1 do in these assays?
MenB inh: -16; Polio RdRp inh: 101; Mtb MbtI inh: -7; Polio RdRp inh intensity: 102

What do the screens show for `CCNc1nc(OCC(F)(F)F)nc(N(c2ccccc2)c2ccccc2)n1`?
MenB inh: 20; Polio RdRp inh: 102; Mtb MbtI inh: 12; Polio RdRp inh intensity: 102

What do the screens show for `CC1(C)OC(=O)C=C(c2ccc(Cl)cc2)O1`?
MenB inh: -23; Polio RdRp inh: 104; Mtb MbtI inh: -3; Polio RdRp inh intensity: 107

Results for O=C1Nc2ccccc2C12Nc1ccccc1S2 (stereo not drawn) ?
MenB inh: 2; Polio RdRp inh: 98; Mtb MbtI inh: -44; Polio RdRp inh intensity: 99

How did Cn1cnc2c(=O)oc3ccc(S(=O)(=O)NCCC4=CCCCC4)cc3c21 do in these assays?
MenB inh: -4; Polio RdRp inh: 103; Mtb MbtI inh: 3; Polio RdRp inh intensity: 104

Results for O=C1CCC(C(=O)OCC(=O)Nc2ccc3c(c2)OCO3)=NN1 ?
MenB inh: 2; Polio RdRp inh: 98; Mtb MbtI inh: -7; Polio RdRp inh intensity: 98

What do the screens show for `S=C(NCc1cccnc1)Nc1ccccc1`?
MenB inh: -26; Polio RdRp inh: 107; Mtb MbtI inh: 3; Polio RdRp inh intensity: 98

Results for Cc1ccc(N2CC(=O)N(C)C2=S)cc1 ?
MenB inh: -29; Polio RdRp inh: 99; Mtb MbtI inh: -1; Polio RdRp inh intensity: 102

Results for C=CCC(NCc1cccs1)c1ccco1 (stereo not drawn) ?
MenB inh: 5; Polio RdRp inh: 100; Polio RdRp inh intensity: 108

How did Cc1noc(-c2cc3cc(Br)ccc3oc2=O)n1 do in these assays?
MenB inh: -13; Polio RdRp inh: 100; Mtb MbtI inh: 0; Polio RdRp inh intensity: 104

Results for CC(C)N(C(=O)CSc1ccccn1)c1ccccc1 ?
Polio RdRp inh: 103; Mtb MbtI inh: -6; Polio RdRp inh intensity: 103

What do the screens show for `Cn1c(CC#N)[n+](C)c2ccccc21`?
MenB inh: -12; Polio RdRp inh: 97; Mtb MbtI inh: 7; Polio RdRp inh intensity: 108

Assay outcomes from PubChem.
